High-throughput results as filed in PubChem BioAssay.
StopGo RLuc: Primary qHTS Assay for Foot and Mouth Disease Virus Antivirals against NCGC Sytravon and CBC Compound Libraries: Renilla Luciferase Signal. Potency, µM (titrated, usually from 57.5 µM), without a hit: at the top dose signal change, negative = less light. hit rate 0.32% among 120,000. HEK cells with a luciferase reporter of 2A StopGo recoding. AID 1745857, 2022; active means well fitted falling curve with a large enough effect; inconclusive means small, poorly fitted or top-dose-only effect; inactive means no such curve, though single readings can be large or run the other way; note: nearly all actives have a fitted effect of over 55% in size; overnight with compound
StopGo FLuc: Primary qHTS Assay for Foot and Mouth Disease Virus Antivirals against NCGC Sytravon and CBC Compound Libraries: Firefly Luciferase Signal; HEK cells with a luciferase reporter of 2A StopGo recoding; Potency, µM (series often up to 57.5 µM), for inactives: at the top dose signal change, negative = less light; hit rate 0.23% among 120,000; AID 1745856, 2022; active = well fitted falling curve with a large enough effect; inconclusive = small, poorly fitted or top-dose-only effect; inactive = no such curve, though single readings can be large or run the other way; note: nearly all actives have a fitted effect of over 60% in size; overnight with compound
Active calls of the source: *; u = inconclusive; & = joins results of further samples; [ ] = another dose, or the depositor's remark. % is set by controls: 0 for no effect and ±100 for the full control effect; potency is the fitted concentration of half-maximal effect. This is a subset. The share of hits here may be higher or lower than overall.

SMILES	StopGo RLuc	StopGo FLuc
COC(=O)c1ccc(Cl)cc1NC(=O)N1CC2CCCN2c2ccccc21 (stereo not given)	4%	23%
CCCNC(=O)c1ccc(Cn2c(SCC(N)=O)nc3ccccc3c2=O)cc1	0%	9%
C/C(=N\Nc1nc(C)cc(C)n1)c1ccc([N+](=O)[O-])cc1	-5%	0%
O=C(O)Cn1cccc(C(F)(F)F)c1=O	7%	4%
Cc1cccc(OCCC(=O)NC23CC4CC(CC(C4)C2)C3)c1	8%	75%[activator]
NCc1cccc(NC(=O)C2CC2)c1	38%[activator]	271%[activator]
CCC(=O)N1CCc2cc(CNC(=O)c3ccccc3C)ccc21	24%	111%[activator]
CCOC(=O)CNC(=O)c1cc2cccc(OCC)c2oc1=O	-9%	0%
COc1ccc(C(=O)COC(=O)c2cc(-c3ccccc3)nc3c(C)cccc23)cc1	-2%	-17%
CC(=O)N(Cc1cccnc1)c1nc2ccc(F)cc2s1	19%	24%
CCOC(=O)c1cnc2c(ccc3ccccc32)c1Nc1ccc(OC)c(OC)c1	0%	3%
NC(=O)c1cccnc1NCCc1cccs1	0%	164%[activator]
COc1ccc(NC(=O)c2cc(CN3CCCC3)on2)cc1Cl	13%	76%[activator]
COc1ccc(N2CC(NC(=O)COc3ccccc3)CC2=O)cc1OC (stereo not given)	4%	-1%
CC(NCc1nc2c([nH]1)c(=O)n(C)c(=O)n2C)c1ccccc1 (stereo not given)	9%	15%
COc1ccc(NS(=O)(=O)c2cc3c(cc2C)NC(=O)CO3)c(OC)c1	156%[activator]	-10%
Cc1cccc(NC(=O)Cc2nc(-c3c(N)n(CC(C)C)c(=O)n(C)c3=O)cs2)c1	-26%	-21%
O=C(CSc1nc2ccccc2s1)Nc1nc2ccccc2s1	1%	2%
Cc1ccc(C(=O)NC(=S)NNC(=O)C2CC2)cc1	9%	132%[activator]
Cc1ccc(C(=O)Nc2ccc(F)cc2)cc1S(=O)(=O)N1CCOCC1	-24%	-6%
CC(C)CCNC(=O)C1CCN(C(=O)CCc2ncc(-c3c(F)cccc3F)o2)CC1	-2%	9%
CN(CC(=O)N1CCN(Cc2ccccc2)CC1)C(=O)Cc1n[nH]c(=O)c2ccccc12	-13%	-4%
CC(NC(=O)c1ccco1)C(=O)Nc1nc(-c2ccc3ccccc3c2)cs1 (stereo not given)	-22%	107%[activator]
Cn1c(=O)[nH]c(=O)c2c1nc(N1CCN(Cc3ccc(F)cc3)CC1)n2CCc1ccccc1	-7%	-12%
CCOC(=O)c1cc2cc(Cl)ccc2[nH]1	0%	20%
C/C(=N\Nc1ccccc1Br)c1ccc(-c2ccccc2)cc1	18%	130%[activator]
Cc1cc(C)cc(NC(=O)C2CCCCC2)c1	88%[activator]	0%
N#Cc1ccc(-c2ccc(OCC(=O)c3ccc4c(c3)OCCCO4)cc2)cc1	u	u
COc1ccc2c(c1)cc1c(=O)n(CC(=O)NC3CC3)nc(C)n12	4%	-11%
Cc1ccc(-n2c(=O)c3c4c(sc3n(Cc3cc(=O)n5cc(Cl)ccc5n3)c2=O)CCC4)cc1C	-11%	-7%
COc1ccc(C(=O)c2c(N)c(C#N)c3n2CCC3)cc1OC	8%	14%
COc1ccc(Nc2ncc(C(=O)Nc3cccc(OC)c3)c3ccccc23)cc1	22%	86%[activator]
O=C(CCN(Cc1cccs1)C1CC1)NC1CC1	-11%	-4%
CC(C)c1nc2ccc(C(=O)NCc3ccc(F)cc3)cc2o1	-6%	14%
O=C(Cn1ccc2c(Cl)cccc21)Nc1ccc2c(c1)OCO2	9%	0%
Cc1nc2ccc(S(=O)(=O)CCC(=O)Nc3ccccc3C)cc2s1	-11%	-16%
O=C(CSc1nccn1Cc1ccc(Cl)cc1)Nc1nc2ccccc2s1	1%	23%
Cc1ccccc1CN1CCN(C(=O)c2cc(-c3cccnc3)nc3ccccc23)CC1	-6%	7%
O=S1(=O)c2ccc(Br)cc2OC[C@@H](Cc2ccccc2)N1Cc1cn(Cc2ccc(Cl)cc2)nn1	29%	35%[activator]
CCOc1ccc(CCNC(=O)c2cc(Nc3ccc(C)cc3C)nc3ccccc23)cc1OCC	-6%	-5%
COc1ccc(-n2ccn(CC(=O)NCCc3ccccc3)c(=O)c2=O)cc1OC	-10%	-11%
CCNc1ccc(S(=O)(=O)N(CC)CC)cc1N	38%[activator]	0%
O=C(COCCOCCOCC(=O)Nc1c(I)cc(I)c(C(=O)O)c1I)Nc1c(I)cc(I)c(C(=O)O)c1I	-4%	-7%
COc1ccc2cc([C@H](C)C(=O)NCCc3cccs3)ccc2c1	31%[activator]	29%
CCCC(=O)Nc1cc(-c2ccccc2OC)[nH]n1	2%	60%[activator]
O=C(c1cccc(Br)c1)N(Cc1ccc2cc[nH]c2c1)C1CC1	78%[activator]	46%[activator]
Cc1cccc(C(=O)NCCc2nc3ccccc3n2CCC(C)C)c1	52%[activator]	-12%
CCOC(=O)c1c(NC(=O)COc2ccc(CC)cc2)sc2c1CCCC2	2%	6%
COc1ccc(NC(=O)CC#N)c(C)c1	3%	28%
CC(C)(C)c1noc(CSc2cc(C(N)=O)c3ccccc3n2)n1	15%	-6%

Other results
SMILES	StopGo RLuc	StopGo FLuc
COc1ccc(N2CCN(S(=O)(=O)CCNC(=O)c3ccc(C(F)(F)F)cc3)CC2)cc1	-9%	1%
CCN1C(=O)C(=O)N(Cc2coc(-c3ccc(C)cc3C)n2)C1=O	6%	11%
Cc1nn(C)c2c1c(C(F)(F)F)cc(=O)n2C(C)C(=O)NCc1ccc(Cl)cc1 (stereo not given)	7%	9%
CCCc1cc(=O)oc2cc(OCC(=O)NCc3ccc(S(N)(=O)=O)cc3)ccc12	12%	0%
COc1cccc(CNC(=O)C2CCCCN2S(=O)(=O)c2ccc(F)cc2)c1 (stereo not given)	19%	-9%
O=C(OCC(O)CO)c1ccccc1Nc1ccnc2cc(Cl)ccc12 (stereo not given)	-6%	-13%
CN(C)S(=O)(=O)N(CC(=O)NC1CCCC1)c1ccccc1	-1%	-4%
CCCCOc1ccc(NC(=O)Cc2ccc(OC)cc2)c2cccnc12	11%	20%
COc1ccc(-n2c(=O)c3ccc(C(=O)NCc4ccc(C)cc4)cc3n(CC(=O)Nc3ccc(C)cc3)c2=O)cc1	-9%	-7%
COc1ccc(C(=O)Oc2ccccc2Cl)cc1Br	6%	8%
Cc1ccc(S(=O)(=O)C(CNC(=O)C(=O)NCc2ccc(Cl)cc2)c2ccco2)cc1 (stereo not given)	-10%	-24%
Cc1ccc(C(=O)NC(O)C(=O)c2ccc(F)cc2)cc1 (stereo not given)	0%	36%[activator]
O=C(NNC(=O)C1CCCCC1)c1ccc(F)cc1Cl	10%	123%[activator]
COc1ccccc1OCCC(=O)OCC(=O)Nc1ncc(Cl)cc1Cl	-18%	-18%
CC(C(=O)NC(c1ccccc1)c1ccccc1)n1nc(C(=O)O)c2ccccc2c1=O (stereo not given)	31%[activator]	0%
COc1ccc2[nH]c(=O)c(CN(C)S(=O)(=O)c3ccccc3)cc2c1	14%	-10%
CCC(C)c1ccc(OC(C)C(N)=O)cc1 (stereo not given)	-1%[1.06 µM]	0%
COc1ccc(OCC(=O)N2CCN(C(=O)c3cccc(OC)c3)CC2)cc1	-15%	-18%
Cc1ccc(NC(=O)C(CC(C)C)NS(=O)(=O)c2ccc3c(c2)oc(=O)n3C)c(C)c1 (stereo not given)	-9%	0%
Cc1ccc(-c2nn(CC(O)COCc3ccccc3)c(=O)c3ccccc23)cc1 (stereo not given)	8%	-17%
CCCCn1c(SCC(=O)c2ccccc2)nc2c1c(=O)[nH]c(=O)n2C	-1%	9%
Cc1nc2ncnn2c(C)c1CCC(=O)N1CCN(c2ccc(F)cc2)CC1	-14%	-21%
COc1ccccc1C1=NOC(C(=O)NCc2ccccc2)C1 (stereo not given)	10%	0%
COc1ccc(NC(=O)C(C)Oc2cccc(C)c2C)c2cccnc12 (stereo not given)	4µM*	u
O=C(Nc1ccc(C(=O)N2CCN(c3ccccc3)CC2)cc1)c1nsc2ccccc12	-3%	-11%
COc1ccc(-c2nnc3c4ccccc4c(-c4ccccc4)nn23)cc1	-5%	21%
COc1cccc2cc(S(=O)(=O)c3cccc(Cl)c3)c(=O)oc12	7%	6%
COc1ccc(-c2c(C#N)c(N)nc3c2c(=O)nc2sccn23)cc1OC	-5%	0%
Cn1cc(C(=O)OCC(=O)NC(=O)NC2CCCC2)c2ccccc21	-11%	-3%
COC(=O)c1cccc(COC(=O)C23CC4CC(CC(O)(C4)C2)C3)c1	2%	24%
Cc1nn2c(=O)cc(CSc3ccccc3NC(=O)c3ccco3)nc2s1	5%	2%
CN1C(=O)c2ccccc2Sc2ccc(NC(=O)COc3ccccc3)cc21	16%	u
FC(F)(F)c1cccc(-n2nnnc2C2(N3CCOCC3)CCCC2)c1	-6%	-12%
Cc1ccc2cccc(NC(=O)c3cccc4ccccc34)c2n1	195%&171%[activator]	15%&-12%
COC(=O)C1=C(C)NC(=O)C1(NC(=O)c1ccco1)C(F)(F)F (stereo not given)	5%	6%
CNC(=O)CN1c2ccc(F)cc2-c2ccccc2S1(=O)=O	-6%	-7%
CCCNS(=O)(=O)c1cc(-c2nn3c(C)nnc3c3ccccc23)ccc1C	303%[activator]	48%[activator]
Cc1ccc(-n2nc(C(=O)N3CCN(c4ccccc4F)CC3)c3c4ccccc4n(C)c3c2=O)cc1	-9%	-13%
Cc1cccc(OCC(=O)Nc2cccc(OCc3cc(=O)n4cccc(C)c4n3)c2)c1	-6%	2%
Cc1cc(C)cc(N2C(=O)CS(=O)(=O)C23C(=O)N(Cc2ccccc2)c2ccccc23)c1 (stereo not given)	-11%	0%
OCCOc1ccc(CNCCc2c[nH]c3ccccc23)cc1	-15%	-14%
CCc1ccc(/C(C)=N/NC(=O)c2csc(CC)c2)cc1	3%	66%[activator]
COc1ccccc1N1CCN(C(=O)CN2C(=O)COc3ccc(S(=O)(=O)N4CCCC4)cc32)CC1	8%	0%

Grouped by structure, the entries above with a Cl atom
SMILES	StopGo RLuc	StopGo FLuc
COC(=O)c1ccc(Cl)cc1NC(=O)N1CC2CCCN2c2ccccc21 (stereo not given)	4%	23%
COc1ccc(NC(=O)c2cc(CN3CCCC3)on2)cc1Cl	13%	76%[activator]
CCOC(=O)c1cc2cc(Cl)ccc2[nH]1	0%	20%
Cc1ccc(-n2c(=O)c3c4c(sc3n(Cc3cc(=O)n5cc(Cl)ccc5n3)c2=O)CCC4)cc1C	-11%	-7%
O=C(Cn1ccc2c(Cl)cccc21)Nc1ccc2c(c1)OCO2	9%	0%
O=C(CSc1nccn1Cc1ccc(Cl)cc1)Nc1nc2ccccc2s1	1%	23%
O=S1(=O)c2ccc(Br)cc2OC[C@@H](Cc2ccccc2)N1Cc1cn(Cc2ccc(Cl)cc2)nn1	29%	35%[activator]
Cc1nn(C)c2c1c(C(F)(F)F)cc(=O)n2C(C)C(=O)NCc1ccc(Cl)cc1 (stereo not given)	7%	9%
O=C(OCC(O)CO)c1ccccc1Nc1ccnc2cc(Cl)ccc12 (stereo not given)	-6%	-13%
COc1ccc(C(=O)Oc2ccccc2Cl)cc1Br	6%	8%
Cc1ccc(S(=O)(=O)C(CNC(=O)C(=O)NCc2ccc(Cl)cc2)c2ccco2)cc1 (stereo not given)	-10%	-24%
O=C(NNC(=O)C1CCCCC1)c1ccc(F)cc1Cl	10%	123%[activator]
COc1ccccc1OCCC(=O)OCC(=O)Nc1ncc(Cl)cc1Cl	-18%	-18%
COc1cccc2cc(S(=O)(=O)c3cccc(Cl)c3)c(=O)oc12	7%	6%
